# High-throughput results from PubChem BioAssay.
# Sa growth 42C – blocks Staphylococcus aureus growth. S. aureus RN4220 growth, OD600, 20 h, 42 °C; stronger effect = lower value. relative growth, % (concentration not given with the values). 0.53% of 170,000 active. AID 720641;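 active = growth at 42 °C up to 50% and 20 or more points under that at 30 °C, or under 10% at both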;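 also: 300 nL library stock went into each well; scaled to the means of positive and negative controls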
# HCMV UL50-53 inh – disrupts HCMV UL50-UL53 complex binding; HTRF UL50-UL53 interaction, normalized percent inhibition; inhibition, % (test concentration not listed); 0.15% of 190,000 active;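 active = both replicates at 50% or more, plus weaker picks with an unusually low signal ratio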;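 also: stock transfer was 100 nL into about 20 µL; 0% = negative control wells and 100% = wells with untagged competitor protein; inactives centre near -12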
# GIV Gai3 FP – GIV-Galpha-i interaction inhibition. P08753. Galpha-i3/FITC-GIV peptide fluorescence polarization, 90 min; stronger effect = lower value; scaled: aluminum fluoride 0%, vehicle 100%. percent of control (FP), % (no concentration beside the values). 0.42% of 210,000 active;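 active = replicate mean at 85% of control or lower, very high polarization wells dropped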;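 also: wells of about 15 µL received 100 nL stock; the first replicate is given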
# Target sequence (P08753 whole entry, looked up): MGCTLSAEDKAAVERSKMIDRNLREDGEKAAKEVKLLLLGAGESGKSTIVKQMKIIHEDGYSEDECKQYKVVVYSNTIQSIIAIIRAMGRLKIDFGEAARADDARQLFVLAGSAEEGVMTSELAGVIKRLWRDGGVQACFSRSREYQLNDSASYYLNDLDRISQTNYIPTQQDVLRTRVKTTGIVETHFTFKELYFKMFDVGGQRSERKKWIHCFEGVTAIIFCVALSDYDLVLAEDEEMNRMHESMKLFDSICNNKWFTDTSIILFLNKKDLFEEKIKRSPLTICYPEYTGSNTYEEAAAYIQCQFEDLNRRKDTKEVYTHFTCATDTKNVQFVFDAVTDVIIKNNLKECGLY
# Sa growth 42C second temp – also measured in Sa growth 42C; calls as there; relative growth, %; measured here: growth at 30 °C;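 optical density after 20 h as mean of two plates; 100% = untreated growth and lower means inhibition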
# An asterisk follows results filed as active; nt = no result given; & = joins results of further samples.
SMILES,Sa growth 42C,Sa growth 42C second temp,HCMV UL50-53 inh,GIV Gai3 FP
CCN1CCN(C(c2cccc(F)c2)c2c(O)cc(C)n(Cc3ccco3)c2=O)CC1 (stereo unspecified),93,91,nt,97
O=C1c2ccccc2C(=O)N1CSc1ccccc1,97,96,0,nt
CCCCOc1ccccc1C(=O)Nc1ccc2c(c1)NC(=O)CO2,nt,nt,5,99
O=C(CCc1ccccc1)N/N=C/c1cccc(O)c1,96,103,-1,99
CCS(=O)(=O)N1CCCc2cc(NC(=O)c3c(-c4ccccc4Cl)noc3C)ccc21,nt,nt,10,108
CCCC(c1nnnn1CCC(C)C)N1CCC(C(N)=O)CC1 (stereo unspecified),95,87,-24,102
Cc1nc2sccn2c(=O)c1S(=O)(=O)N1CCc2ccccc2C1,91,76,-29,100
CCOC(=O)c1sc2nc(C)nc(N3CCCCC3CC)c2c1C (stereo unspecified),nt,nt,-9,101
CCCc1n[nH]c2c1/C(=N\OCC)CC(C)(C)C2,154,95,-8,104
CN1CCN(c2oc(-c3ccc(F)cc3)nc2S(=O)(=O)c2ccc(F)cc2)CC1,nt,nt,-8,99
CC(CN(C)Cc1ccccc1)OC(=O)c1cccc(F)c1 (stereo unspecified),102,94,-15,nt
CC(C)CNC(=O)CCn1c(=O)c2ccccc2n2c(=S)[nH]nc12,nt,nt,-24,99
Cc1cccc(NC(=O)c2ccc(F)c(S(=O)(=O)NCc3ccc4c(c3)OCO4)c2)c1,109,89,nt,106
Cc1ccc(C2C=C(c3ccc(F)cc3)Nc3nc(CCCO)nn32)cc1 (stereo unspecified),100,80,-15,106
NC(=O)c1oc2ccccc2c1NC(=O)C1CC(=O)N(c2ccc(F)cc2)C1 (stereo unspecified),92,84,-4,100
Cc1cccc(N2CCN(C(=O)Cn3cnc4sc(C)c(S(=O)(=O)N5CCN(c6ncccn6)CC5)c4c3=O)CC2C)c1 (stereo unspecified),98,88,-28,104
O=C(O)COCC1CCCO1 (stereo unspecified),83,83,10,101
c1ccc(-c2noc(NC3CCCC3)n2)cc1,92,80,-20&6,101&105
Cc1ccc(CC(=O)NC2CCSC2=O)cc1 (stereo unspecified),88,94,13,107
FC(F)(F)c1ccc(NCCNc2ccc(C(F)(F)F)cn2)nc1,106,90,-16,nt
CCOc1ccccc1Nc1ncnc2c1c(-c1ccccc1)cn2-c1ccc(OC)cc1,134,101,nt,100
O=S(=O)(/N=S1/CCC2(C1)OCCO2)c1cc(C(F)(F)F)cc(C(F)(F)F)c1 (stereo unspecified),112,88,-13,107
COc1ccc(/C=C2/SC(=S)N(c3c(C)n(C)n(-c4ccccc4)c3=O)C2=O)c(C(=O)O)c1OC,nt,nt,-70,105
Cc1noc(-c2ccc(-c3noc(-c4ccc(C(F)(F)F)cc4)n3)cc2)n1,100,100,nt,108
Nc1c(C(=O)NCc2cccs2)c2nc3ccccc3nc2n1-c1ccc2c(c1)OCO2,95,88,-28,99
CC(=O)Nc1ccc(N/C=C/C(=O)c2ccco2)cc1,98,98,-48,129
O/N=c1/sc2ccccc2n1CCS,111,96,-13,105
Cc1c(C(=O)N2CCN(C3CCS(=O)(=O)C3)CC2)oc2ccc(Cl)cc12 (stereo unspecified),75,85,-35,nt
C=CCNC(=S)NC1C2CN3CCN(C2)CC1(C)C3 (stereo unspecified),106,93,-10,98
O=C(Cn1cnc(S(=O)(=O)N2CCc3ccccc32)c1)NCc1ccccc1,100,101,-3,110
CN1CCc2nc(SCC(=O)Nc3ccccc3OC(F)(F)F)c(C#N)cc2C1,104,86,nt,109
CN(CC(=O)NC1CC(C)(C)NC(C)(C)C1)S(=O)(=O)c1ccc(Br)cc1,94,101,0,102
O=C(CN1CCC(N2CCCCC2)CC1)NC(c1ccccc1)c1ccccc1,118,94,9,100
CCOC(=O)C1=C(N)Oc2cc(C)n(C)c(=O)c2C1c1ccncc1 (stereo unspecified),100,91,-11,99
COc1cccc(CNC(=O)CCCOc2cc(=O)n(C)c3ccccc23)c1,78,85,nt,101
Cc1nc(C(F)(F)F)ccc1C(=O)NCCNc1cccc(C(F)(F)F)n1,103,92,nt,103
OCCN1CCN(C(c2ccc(C(F)(F)F)cc2)c2ccc3cccnc3c2O)CC1 (stereo unspecified),nt,nt,-14,101
CCSc1ccc(/C(N)=N/O)cn1,99,87,1,100
COc1ccc(C2Nc3ccccc3C(=O)N2c2ccc(F)cc2)cc1CSc1nc2ccccc2s1 (stereo unspecified),nt,nt,-10,103
Cc1cc(=O)[nH]c2c1c(C)nn2-c1ccccc1,112&95,90&82,-8&-13,96
CC(NC(=O)c1ccc2c(c1)sc1nc(-c3ccccc3)cn12)C12CC3CC(CC(C3)C1)C2 (stereo unspecified),105,84,nt,107
CCOc1ccc(NC(=O)Cn2nc3c(cc2=O)CC(C)CC3)cc1 (stereo unspecified),82,86,nt,105
CCOc1ccc(NC(=O)CSc2nnc3ccccn23)cc1,93,95,-6,nt
O=C(CCN1C(=O)/C(=C\c2cccs2)SC1=S)Nc1cccc(F)c1,nt,nt,-11,113
Cn1c(=O)oc2cc(S(=O)(=O)CCC(=O)N3CCN(c4ccccc4)CC3)ccc21,105,87,nt,104

# Looked up above.
# In Sa growth 42C, Cn1c(=O)oc2cc(S(=O)(=O)CCC(=O)N3CCN(c4ccccc4)CC3)ccc21 has the entry 105
# In Sa growth 42C second temp, NC(=O)c1oc2ccccc2c1NC(=O)C1CC(=O)N(c2ccc(F)cc2)C1 (stereo unspecified) has the entry 84
# In GIV Gai3 FP, CC(NC(=O)c1ccc2c(c1)sc1nc(-c3ccccc3)cn12)C12CC3CC(CC(C3)C1)C2 (stereo unspecified) has the entry 107
# In HCMV UL50-53 inh, CCCc1n[nH]c2c1/C(=N\OCC)CC(C)(C)C2 has the entry -8
# In Sa growth 42C second temp, CCOc1ccc(NC(=O)CSc2nnc3ccccn23)cc1 has the entry 95
# In GIV Gai3 FP, O=C(CCc1ccccc1)N/N=C/c1cccc(O)c1 has the entry 99

# At a glance, part of the list above:
SMILES,Sa growth 42C,Sa growth 42C second temp,HCMV UL50-53 inh,GIV Gai3 FP
O=C(CCN1C(=O)/C(=C\c2cccs2)SC1=S)Nc1cccc(F)c1,nt,nt,-11,113
Cn1c(=O)oc2cc(S(=O)(=O)CCC(=O)N3CCN(c4ccccc4)CC3)ccc21,105,87,nt,104

# (more compounds)
SMILES,Sa growth 42C,Sa growth 42C second temp,HCMV UL50-53 inh,GIV Gai3 FP
O=C(c1ccccc1)n1nc(-c2ccc(Cl)cc2)nc1NCc1ccco1,105,88,-10,107
CCc1ccccc1N(CC)C(=O)c1coc(=O)c2ccccc12,81,82,-2,98
CCC(C(=O)Nc1ccccc1OC)n1c(C(=O)OC)cc2sccc21 (stereo unspecified),101,96,-1,106
CCOC(=O)C(C)(C)Oc1ccc(Cl)cc1,100&93,111&86,-38&-46&2&-20,108&103
Cc1ccc(S(=O)(=O)c2cc3cc(C(=O)Nc4ccc(C)c(C)c4)ccc3oc2=O)cc1,90,92,nt,103
CCN(c1nc2nc(C)c(Cl)c(C)n2n1)S(=O)(=O)c1ccc(C)cc1,nt,nt,-8,99
CN1C(=O)C(=Cc2ccc(Oc3ccc([N+](=O)[O-])cc3[N+](=O)[O-])cc2)C(=O)N(C)C1=O,nt,nt,-63,93
O=c1cc(CSc2ccccc2)nc2sccn12,111,96,0,106
Cc1ccc2c(CC(=O)Nc3ccc(S(=O)(=O)N4CCCCC4)cc3)coc2c1C,110,103,3,107
O=C(CN(c1ccc(F)cc1)S(=O)(=O)c1ccccc1)Nc1ccc(S(=O)(=O)N2CCCCC2)cc1,nt,nt,18,108
O=c1c(-c2ccc(OC3O[C@H](CO)[C@@H](O)[C@H](O)[C@H]3O)cc2)coc2cc(O)cc(O)c12 (stereo partly specified),97,84,-32,106
CN1C(=O)C(c2c(-c3ccccc3)[nH]c3c2c(=O)[nH]c(=O)n3C)c2ccccc21 (stereo unspecified),nt,nt,-9,97
Cc1nnsc1C(=O)Nc1ccccc1N1CCCCC1,102,96,4,100
CCn1c(C)cc(O)c(C(c2ccc(OC)cc2)N2CCN(C)CC2)c1=O (stereo unspecified),102,98,-3,107
C/C(=N\NS(C)(=O)=O)c1ccc(C)cc1,61,105,-6,105

# Some entries already given with just HCMV UL50-53 inh and Sa growth 42C second temp:
structure	HCMV UL50-53 inh	Sa growth 42C second temp
c1ccc(-c2noc(NC3CCCC3)n2)cc1	-20&6	80
Cc1ccc(CC(=O)NC2CCSC2=O)cc1 (stereo unspecified)	13	94
FC(F)(F)c1ccc(NCCNc2ccc(C(F)(F)F)cn2)nc1	-16	90
CCOc1ccccc1Nc1ncnc2c1c(-c1ccccc1)cn2-c1ccc(OC)cc1	nt	101
O=S(=O)(/N=S1/CCC2(C1)OCCO2)c1cc(C(F)(F)F)cc(C(F)(F)F)c1 (stereo unspecified)	-13	88

# Other results
SMILES,Sa growth 42C,Sa growth 42C second temp,HCMV UL50-53 inh,GIV Gai3 FP
NC1=NC(=O)/C(=C\c2ccc(OCc3ccc(Cl)cc3Cl)cc2)S1,nt,nt,-8,99
O=C(CN(c1ccccn1)S(=O)(=O)c1ccccc1)N=Nc1c(O)[nH]c2ccccc12,113,94,-105,99
CCc1ccc(NC(=O)CSc2nc(-c3ccccc3)c(C#N)c(=O)[nH]2)cc1,109,89,-22,104
COc1cccc(NC(=O)N2CCC(N(C)Cc3cccc(Cl)c3)CC2)c1,100,95,15,104
FC(F)(F)c1cc(C(F)(F)F)c(Br)c(-n2cccc2)c1Br,78,89,10,96
Cc1csc(SCC(=O)c2cc(C)n(-c3ccccc3)c2C)n1,105,75,-14,nt
CC(C)(C)c1ccc(S(=O)(=O)Nc2cc3[nH]c(=O)[nH]c3cc2Cl)cc1,nt,nt,-19,104
COc1cc2c(cc1OC)CN(C(=O)CCOc1ccccc1OC)CC2,93,89,-10,nt
O=C(Nc1nc2ccccc2s1)c1n[nH]c(=O)c2ccccc12,104,86,-1,99
O=C(Cn1nnc(-c2ccccc2)n1)c1ccc(S(=O)(=O)N2CCCCC2)cc1,111,89,-21,nt
Cc1ccc(C(=O)CSc2nnnn2C2CCCC2)cc1C,105,75,1,98
N#Cc1ccc(OCC(=O)N/N=C/C2CC=CCC2)cc1 (stereo unspecified),87,98,-10,nt
Nc1nsc2ccccc12,71,77,-14,nt
COc1c(C)cccc1C(=O)Nc1cccc2ccc(C)nc12,91,69,7,101
COc1ccccc1Nc1nc(NCC2CCCO2)c2ccccc2n1 (stereo unspecified),54,32,19,103

# Single records, from the list above.
# Entry for FC(F)(F)c1cc(C(F)(F)F)c(Br)c(-n2cccc2)c1Br = Sa growth 42C = 78; Sa growth 42C second temp = 89; HCMV UL50-53 inh = 10; GIV Gai3 FP = 96
# Entry for CC(C)(C)c1ccc(S(=O)(=O)Nc2cc3[nH]c(=O)[nH]c3cc2Cl)cc1 = Sa growth 42C = nt; Sa growth 42C second temp = nt; HCMV UL50-53 inh = -19; GIV Gai3 FP = 104

# Next compounds
SMILES,Sa growth 42C,Sa growth 42C second temp,HCMV UL50-53 inh,GIV Gai3 FP
CN(Cc1ccccc1)C(=O)c1ccc(CSc2nc3cccnc3n2Cc2ccccc2F)cc1,125,78,nt,104
Cc1nc(Cc2nnc(SCC(=O)c3ccc4c(c3)CCCN4S(C)(=O)=O)o2)cs1,82,85,-17,nt
O=C(CSc1nc2c(sc(=S)n2Cc2ccco2)c(=O)n1-c1ccccc1)c1ccc(O)c(O)c1,50,31,-22,101
COC(=O)c1sccc1OC(=O)c1ccc(Cl)cc1Cl,93,98,-12,107
COC(=O)c1ccc(C2C(C(=O)Nc3ccccc3)=C(C)Nc3nc4ccccc4n32)cc1 (stereo unspecified),113,89,-24,105
Cc1ccc(-c2nnc(Nc3cccc(Cl)c3)c3ccccc23)cc1S(=O)(=O)N1CCOCC1,130,109,16,103
O=C(CSCc1ccccc1F)NCc1ccccc1,114,87,nt,106
O=C(O)c1ccc(Oc2ccc(Cl)c(F)c2)cc1,nt,nt,-20,102
Cn1c(=O)[nH]c(=O)c2c3c(cnc21)C(=O)CC(C)(C)C3,nt,nt,-22,110
CCCCn1cnc2cc(NCc3cc(OC)c(OC)c(OC)c3)ccc21,99,85,-2,100
Cc1cc(Br)ccc1NC(=O)c1c(C)oc2ncnc(N3CCCCC3)c12,134,86,nt,107
C=CCOC(=O)C1=C(C)N2CCSC2=C(C#N)C1c1ccco1 (stereo unspecified),111,100,-19,nt
CC(C)Cn1c(=O)n(C)c(=O)c2cc(C(=O)c3cc(Cl)cc(Cl)c3O)cnc21,84,92,-20,nt
O=C1Nc2ccccc2C1Cc1ccc(F)cc1 (stereo unspecified),nt,nt,-13,99
CCOc1ccc(OCC)c(NC(=O)CCc2nc3cccnc3n2Cc2cccs2)c1,112,94,-12,121
COc1cc(/C=C2/SC(=S)N(CC(=O)O)C2=O)ccc1OCc1ccccc1,nt,nt,-71,113
O=C(O)CCc1ccc(-c2ccccc2)n1CC(=O)Nc1ccccc1C(F)(F)F,97,81,-23,100
Cn1c(C(=O)NCCc2ccccc2)cc(=O)n(C)c1=O,89,80,-23,100
